# VDR inh: blocks the human vitamin D receptor; actives 0.93% (n = 400,000); VDR-SRC2-3 peptide fluorescence polarization, 2 h; Potency, µM, for the others: max response, negative = inhibition, usual class: inhibitors; AID 504847; P11473; active = well fitted inhibition curve with a large enough effect; inconclusive = small, poorly fitted or top-dose-only effect, or another doubt; inactive = no such curve, though single readings can be large or run the other way; note: series mostly up to about 120 µM
# Target sequence (P11473 whole entry, looked up): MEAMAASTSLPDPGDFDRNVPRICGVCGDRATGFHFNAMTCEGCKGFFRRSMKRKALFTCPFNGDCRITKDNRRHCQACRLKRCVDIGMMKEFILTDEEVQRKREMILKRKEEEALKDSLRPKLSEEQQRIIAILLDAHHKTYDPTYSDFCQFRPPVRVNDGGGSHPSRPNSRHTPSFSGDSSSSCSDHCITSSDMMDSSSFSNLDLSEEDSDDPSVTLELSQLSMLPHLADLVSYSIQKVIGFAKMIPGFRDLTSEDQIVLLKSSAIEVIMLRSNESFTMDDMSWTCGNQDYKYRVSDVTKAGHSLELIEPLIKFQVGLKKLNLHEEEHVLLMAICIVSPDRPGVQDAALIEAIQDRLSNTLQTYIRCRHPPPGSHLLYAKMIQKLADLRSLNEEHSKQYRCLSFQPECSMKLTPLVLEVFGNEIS
#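 Signal is fluorescence polarization, reporting how far test compounds block the interaction of VDR with the SRC2-3 coregulator peptide after a 2 h room-temperature incubation.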
# * = called active by the depositor; ? = inconclusive; & = joins results of further samples. % is set by controls: 0 for no effect and ±100 for the full control effect; potency is the fitted concentration of half-maximal effect.
No. | molecule | VDR inh
1 | O=C(N[C@@H]1c2ccccc2CC[C@@H]1OCc1ccccc1)c1ccc(C(F)(F)F)cc1 | -12%
2 | CC1=C(C(=O)Nc2ccccn2)C(c2ccc(Br)cc2)NC(=S)N1 (stereo not drawn) | ?
3 | CCc1ccc(CNC(=O)c2ccc3c(c2)c(C)c(C)n3Cc2ccccc2)cc1 | 7%
4 | COC(=O)c1sc(S(=O)(=O)Oc2ccccc2NC(C)=O)c(C(=O)OC)c1C | -9%
5 | Cc1nn(-c2ccccc2)c(C)c1-c1cc(C(=O)N/N=C/c2ccc(O)cc2)[nH]n1 | -14%
6 | CC(C)(C)OC(=O)NCCCC[C@H](NC(=O)c1[nH]cnc1C(=O)N[C@@H](Cc1ccccc1)C(=O)OCc1ccccc1)C(=O)OC(C)(C)C | -4%
7 | COCCNC(=O)C(=O)NCC1OCCCN1S(=O)(=O)c1cccs1 (stereo not drawn) | -2%
8 | CCc1nnc2c(N(C)C)nc3ccccc3n12 | -3%
9 | CC1c2cc3c(cc2CCN1S(=O)(=O)c1ccccc1)OCCCO3 (stereo not drawn) | -1%
10 | Cc1ccccc1N1CN(Cc2ccco2)CNC1=S | 5%
11 | O=C(Nc1ccc(F)cc1)NC1CCCCCCC1 | 0%
12 | COc1ccc(OC)c(N/C(N)=N/c2nc(C)cc(C)n2)c1 | -9%
13 | O=S(=O)(Nc1cc(F)ccc1F)c1cccc2nsnc12 | -12%
14 | CCCCc1nc2ccccc2c(NC(=O)CN2CCN(C)CC2)c1CCC | -13%
15 | Cc1cc(C)cc(NC(=O)Nc2cc(S(=O)(=O)N(C)C)ccc2C)c1 | 3%
16 | O=C(NNC(=O)c1cccnc1)c1ccncc1 | -12%
17 | N#C[C@]1(S(=O)(=O)c2ccccc2)C[C@@H]2ON=C(c3cccc(Br)c3)[C@@H]2C1 | -5%
18 | CCOC(=O)N1CCc2c(sc3c2c(=O)n(-c2ccc(CC)cc2)c(=O)n3Cc2cc(C)ccc2C)C1 | -6%
19 | CC(C)(C)c1ccc(/C=C(\C#N)C(=O)NC2CC2)cc1 | ?
20 | COc1cc(NC(=O)N2CCC(CN3CCCC3)CC2)cc(OC)c1OC | 4%

# Following part.
No. | molecule | VDR inh
21 | O=C1c2ccccc2C(=O)N1c1ccc(Cc2ccncc2)cc1 | -5%
22 | CCOC(=O)N1CCN(Cc2nc3cc(NC(=O)c4ccccc4OC)ccc3n2C(C)C)CC1 | 9%
23 | CSc1ncc(C(=O)Nc2cc(C)cc(C)c2)c(-c2ccccc2)n1 | 7%
24 | OC1(c2ccccc2Cl)NN=C2CCCCCN21 (stereo not drawn) | -7%
25 | CC(=O)N(CN1C(=O)c2ccccc2C1=O)c1ccccc1 | 0%
26 | CCOCC(=O)Nc1ccc(S(=O)(=O)NCC2CCCO2)cc1 (stereo not drawn) | -8%
27 | O=C(O)c1cscn1 | -8%
28 | C[C@@]12C(=O)N(c3cccc(F)c3)C(=O)N1[C@H](c1ccc(Cl)cc1)[C@@H]1C(=O)N(C3CCCCC3)C(=O)[C@@H]12 | -4%
29 | COc1cccc(C2=NOC(C(=O)NC(C)C)C2)c1 (stereo not drawn) | 0%
30 | CC(Sc1n[nH]c(N)n1)C(=O)Nc1ccccc1-c1ccccc1 (stereo not drawn) | 0%
31 | FC(F)(F)c1nc2nncn2c2c1CCCCC2 | 11%
32 | N[C@H](CSC(c1ccccc1)(c1ccccc1)c1ccccc1)C(=O)O | ?
33 | COc1ccc(NC(=O)c2ccc(S(=O)(=O)N3CCCCC3)cc2)c(OC)c1 | 6%
34 | N#CCCn1nc(-c2ccccc2)cc1-n1c(C(F)(F)F)nc2ccccc21 | -17%
35 | O=C(CSc1nnc(-c2ccccc2)o1)NC1CC1 | 8%
36 | COCCNS(=O)(=O)c1ccc(Cl)c(C(=O)NC2CCN(Cc3ccccc3)CC2)c1 | 13%
37 | Cc1cc(=O)oc2c3c(cc(OCC(=O)NC4CC4)c12)OC(C)(C)CC3 | -1%
38 | CC(C)CN(C(=O)CSc1nn(-c2ccc(Cl)cc2)c(=S)s1)C1CCS(=O)(=O)C1 (stereo not drawn) | 10%
39 | Nc1ccc2nc(-c3ccccc3)c(-c3ccccc3)nc2c1 | ?
40 | CCC(=O)Nc1nc2ccccc2n1CCN(C)C | 10%

# Other compounds:
No. | molecule | VDR inh
41 | CCCCC/C=C\C/C=C\CCCCCCCC(N)=O | -1%&2%&0%
42 | Cc1cc(N(C)NC(=S)Nc2ccccc2)nc(C)n1 | -26%
43 | CN(Cc1cccc(F)c1)C(=O)CN1C(=O)NC2(CCc3ccccc32)C1=O (stereo not drawn) | -21%
44 | COc1cc(/C=N\NC(=O)C2C(=O)NCC2c2ccccc2)cc(OC)c1O (stereo not drawn) | 6%
45 | CN(Cc1ccc(F)cc1)C(=O)c1cccc(S(=O)(=O)NCc2ccccc2)c1 | -1%
46 | CC[C@H](C)[C@@H](NC(=O)O[C@@H]1C(=O)c2ccc(OC)cc2O[C@H]1c1cccc(C(F)(F)F)c1)C(=O)OC | -2%
47 | O=c1oc(-c2ccccc2)cc(Cl)c1Cl | -23%
48 | COc1ccc(NC(=O)C2=C(C)Nc3nc(SCc4ccccc4)nn3C2c2cc(OC)ccc2OC)cc1 (stereo not drawn) | 8%
49 | CCOc1ccc(CN2CCNC(=O)C2CC(=O)NCCC2=CCCCC2)cc1 (stereo not drawn) | -5%
50 | COc1ccc(OC)c2sc(N3CCCCC3)nc12 | -5%
51 | O=C(Cc1c[nH]c2ccccc12)Nc1ccc(N2CCOCC2)cc1 | ?
52 | CCCNC(=O)C(=O)Nc1ccc(N(C)C)cc1 | 11%
53 | Cc1ccccc1OCC(=O)Nc1ccccc1-c1ccccc1NC(=O)COc1ccccc1C | -17%
54 | COC(=O)c1ccc(COc2cccc(C)c2C)cc1 | -5%
55 | C#CCOCCOCCOCCNc1nc(N2CCN(C(=O)Cn3cc(CCCN=C(N)N)nn3)CC2)nc(N2CCN(C(=O)[C@H]([C@@H](C)CC)n3cc(CCCCN)nn3)CC2)n1 | -29%
56 | O=C(Nc1ccccc1)c1cccc(N2C(=O)C3C4CC(C(Br)C4Br)C3C2=O)c1 (stereo not drawn) | -5%
57 | CC(C)(C)OC(=O)N1C[C@H](O)C[C@H]1C(=O)OCC(=O)c1ccc([N+](=O)[O-])cc1 | ?
58 | Cc1nn(CC(=O)NCc2ccc(Cl)cc2)c(C)c1[N+](=O)[O-] | -11%
59 | COc1ccc(-c2cc3c(=O)n(CC(=O)Nc4cc(F)ccc4F)ccn3n2)cc1OC | 16%
60 | Cc1ccc(Cn2c(=O)n(CCc3ccc(Cl)cc3)c(=O)c3ccccc32)cc1 | 3%

# Entries 34 through 40 of the list above:
No. | molecule | VDR inh
34 | N#CCCn1nc(-c2ccccc2)cc1-n1c(C(F)(F)F)nc2ccccc21 | -17%
35 | O=C(CSc1nnc(-c2ccccc2)o1)NC1CC1 | 8%
36 | COCCNS(=O)(=O)c1ccc(Cl)c(C(=O)NC2CCN(Cc3ccccc3)CC2)c1 | 13%
37 | Cc1cc(=O)oc2c3c(cc(OCC(=O)NC4CC4)c12)OC(C)(C)CC3 | -1%
38 | CC(C)CN(C(=O)CSc1nn(-c2ccc(Cl)cc2)c(=S)s1)C1CCS(=O)(=O)C1 (stereo not drawn) | 10%
39 | Nc1ccc2nc(-c3ccccc3)c(-c3ccccc3)nc2c1 | ?
40 | CCC(=O)Nc1nc2ccccc2n1CCN(C)C | 10%

# (more compounds)
No. | molecule | VDR inh
61 | CC1CCCCN1C(=O)c1ccc2c(c1)N(Cc1ccc(Cl)cc1)C(=O)c1ccccc1S2=O (stereo not drawn) | -11%
62 | COc1ccc(NC(=O)CSc2n[nH]c(-c3ccncc3)n2)c([N+](=O)[O-])c1 | 8%
63 | Cc1ccc(CCNC(=O)c2ccc(CS(=O)(=O)Cc3ccc(F)cc3)o2)cc1 | -2%
64 | Cc1ccc(NS(=O)(=O)c2cc(C(=O)N3CCOCC3)ccc2C)cc1 | 10%
65 | COC(=O)NCC(c1cccnc1)N1CCN(c2ccccc2)CC1 (stereo not drawn) | 10%
66 | CCn1nc(C)cc1C(=O)N1CCCC(CCC(=O)NCc2ccccc2F)C1 (stereo not drawn) | 11%
67 | CCCCc1ccc(S(=O)(=O)N2CCN(C(=O)c3ccco3)CC2)cc1 | -9%
68 | O=C(CCC(=O)N1CCN(c2ccccc2)CC1)Nc1nnc(C2CCCCC2)s1 | -1%
69 | COCCN(C(=O)COC(=O)c1ccccc1Cc1ccccc1)c1c(N)n(Cc2ccccc2)c(=O)[nH]c1=O | 12%
70 | Cc1ccc(Cn2nc(C)cc2C(=O)Nc2ccccc2Cl)cc1 | 7%
71 | C=CCOC(=O)N[C@H](c1cccc(C(F)(F)F)c1)C(C(C)=O)C(C)=O | -12%
72 | CNC(=S)N(CCc1c(C)[nH]c2ccc(F)cc12)Cc1cccnc1 | 1%
73 | CC1CCCN(S(=O)(=O)c2ccc3c(c2)CCN3C(=O)C2CCC2)C1 (stereo not drawn) | 7%
74 | O=C(c1cccc(N2C(=O)C3C4C=CC(C4)C3C2=O)c1)N1CCN(c2ccccc2F)CC1 (stereo not drawn) | -7%
75 | CCOC(=O)c1ccccc1N/C=C1\CCCCC1=O | -9%
76 | Cc1nc2ccccc2c2oc(C(=O)Nc3ccc4c(c3)OCCO4)cc12 | -12%
77 | CC(=O)C1=C(O)C(=O)N(CCN(C)C)C1c1ccc(Cl)cc1 (stereo not drawn) | -7%
78 | O=S(=O)(c1ccccc1)c1nc(-c2cccs2)oc1NCc1cccnc1 | -16%
79 | COc1ccc(-c2noc3c2-c2nc(-c4cccc(C)c4)sc2CC3)cc1 | 4%
80 | O=C(NC1CCCC1)c1ccc(CSc2nc3ccncc3n2Cc2ccc(F)cc2)cc1 | -1%&-4%

# (listing goes on)
entry	structure	VDR inh
81	N#CC(c1ccccc1)N(CCCCl)C(=O)c1ccc(Br)cc1 (stereo not drawn)	-16%
82	COc1cccc2sc(Nc3nc(C)c(C(C)=O)s3)nc12	8%
83	COc1ccc(NC(=O)C(c2ccccc2)N(C)C(=O)c2ccc(=O)[nH]c2)cc1 (stereo not drawn)	-18%
84	COc1ccc(NC(=O)CCc2nc3c(C)nn(-c4ccc(C)cc4)c3n(C)c2=O)cc1	-7%
85	CC(C)C(=O)N1CCN(C2=NS(=O)(=O)c3ccccc32)CC1	-1%
86	Cc1cc(C)n(S(=O)(=O)c2ccc(C)c(C)c2C)n1	-5%
87	CCOC(=O)c1nc(Nc2ccccc2OC)c2ccccc2n1	1%
88	CC(=O)N(O)CCCCCNC(=O)CCC(=O)N(O)CCCCCNC(=O)CCC(=O)N(O)CCCCCNC(=O)CCC(=O)O	-11%
89	CC(CNC(=O)c1cc(-c2ccccc2)n[nH]1)c1ccccc1 (stereo not drawn)	-1%
90	COc1ccc(NC(=O)C2CCN(S(=O)(=O)c3ccc4c(c3)CCCC(=O)N4)CC2)cc1OC	21%

# Further results follow:
entry	structure	VDR inh
91	Cc1cc2oc(C(=O)Nc3ccc(S(N)(=O)=O)cc3)cc(=O)c2cc1C	-7%
92	C=CCC1NS(=O)(=O)OC(CCc2ccccc2)C1O (stereo not drawn)	-4%
93	COCCn1c(C)cc(C(=O)Cn2nc(C(=O)O)c3ccccc3c2=O)c1C	0%
94	CCCCc1nn2c(=O)cc(COC(=O)c3cccc(NC(=O)c4cccc(C)c4)c3)nc2s1	7%
95	C=CCn1c(Cc2cccs2)nnc1SC/C=C/c1ccccc1	-4%
96	Cc1c(N=Cc2ccc(Br)s2)cccc1[N+](=O)[O-]	11%
97	Cc1cccc(-n2c(Cn3nc(C)c([N+](=O)[O-])c3C)n[nH]c2=S)c1	23%
98	Cc1ccc(Sc2cc(N3CCOCC3)nc(-c3ccccc3)n2)cc1	17%
99	CCOc1ccccc1NC(=O)N1CCCC1C(=O)Nc1ccc(-n2cnnn2)c(C)c1 (stereo not drawn)	-4%
100	COc1ccc(NC(=O)c2ccc(N3C(=O)C4CC=C(Cl)CC4C3=O)cc2)cc1 (stereo not drawn)	-19%

# New compounds follow.
entry	structure	VDR inh
101	CSc1ccc(S(=O)(=O)NCCCOC(C)C)cc1	7%
102	COc1ccc(C(=O)Nc2nnc(SCC(=O)NC3CC3)s2)cc1	18%
103	CCc1cccc2c(C(=O)COC(=O)c3ccccc3)c[nH]c12	0%
104	CCC(Cc1ccccc1)NS(=O)(=O)c1ccc2c(c1)NC(=O)CO2 (stereo not drawn)	-15%
105	Cc1ccc(C(=O)Nc2ccc(N3CCOCC3)cc2)cc1S(=O)(=O)N1CCCCC1	-12%
106	Cc1cccc(C)c1Nc1ncnc(N)c1[N+](=O)[O-]	6%
107	COc1ccc(CC2(CO)CCN(Cc3cnn(C)c3)CC2)cc1	-13%
108	COc1cccc2[nH]c(C(=O)NCc3ccccc3)cc12	-7%
109	CCN(CC)c1nc2ccccc2c(N)c1-c1ccccc1	1%
110	OCC1(CO)CC2(C1)CC(CO)(CO)C2	15%

# Following part:
entry	structure	VDR inh
111	O=C(CSc1oc(-c2ccccc2)nc1S(=O)(=O)c1ccc(Cl)cc1)Nc1ccc(F)cc1	10%
112	CCOC(=O)Cc1csc(NC(=O)CN2CCN(CC)CC2)n1	-12%
113	Cc1ccc([C@@H]2CC=C(C(=O)O)[C@H](c3ccc(F)cc3)N2S(=O)(=O)c2ccccc2C)cc1	-2%
114	CC(C)c1ccc(N(CC(=O)NCCc2ccccc2)C(=O)c2csnn2)cc1	9%
115	CS(=O)(=O)N1Cc2ccccc2CC1C(=O)Nc1ccccc1C(N)=O (stereo not drawn)	3%

# Random excerpt: 5 entries already listed
entry	structure	VDR inh
61	CC1CCCCN1C(=O)c1ccc2c(c1)N(Cc1ccc(Cl)cc1)C(=O)c1ccccc1S2=O (stereo not drawn)	-11%
53	Cc1ccccc1OCC(=O)Nc1ccccc1-c1ccccc1NC(=O)COc1ccccc1C	-17%
54	COC(=O)c1ccc(COc2cccc(C)c2C)cc1	-5%
52	CCCNC(=O)C(=O)Nc1ccc(N(C)C)cc1	11%
82	COc1cccc2sc(Nc3nc(C)c(C(C)=O)s3)nc12	8%

# From PubChem BioAssay

# Some of the compounds tested. The share of hits here may be higher or lower than overall.
